Screening data: PubChem BioAssay, several laboratories
PKD1 kinase inh: inhibitors of human PKD1 kinase; AID 797; PKD1 kinase fluorescence polarization assay; inhibition, %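 (about 10 µM by stock and volumes)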; Q15139; hit rate 0.056% among 200,000;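 active = inhibition of 50% or more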;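 note: controls were vehicle for no effect and a reference inhibitor for full effect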
GALR2 ag: activates the human galanin receptor 2; O43603; GALR2-expressing cells, agonist activation read-out; activation, %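 (tested at 5 µM)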; hit rate 0.48% among 140,000; AID 803;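 active = above mean plus 3 SD of all compounds, about 5% in these data, not always enough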;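 note: 0% = vehicle buffer wells and 100% = reference agonist at full effect; tested in CHO reporter cells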
Insulin prom inh: TRM-6 insulin promoter activity inhibition. TRM-6 cells (human fetal islet line), insulin promoter-eGFP reporter, imaging; reporter expression induced with tamoxifen. inhibition, % at 2 µM. hit rate 0.9% among 130,000. AID 1273;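 active = inhibition above the mean plus 3 SD, with well images judged a real hit on visual review, cut at about 60% in these data, passing the limit was not always enough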
HSV augment: increases HSV replication in cells | HSV replication augmentation in cells, fold increase | maximum fold increase | hit rate 0.005% among 220,000;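 active = peak rise of 1.5-fold or more in the series; tested in PC3 cells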;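 note: first round at 10 µM; read as green reporter fluorescence; hits show the peak of a series up to 25 µM; 1 = signal of infected wells without compound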
RGS16-Gao HTS: modulates binding between human RGS16 and Galphao; bead-based flow cytometry RGS16-Galphao binding, fluorescence; actives lie on both sides; hit rate 0.38% among 220,000; binding response (% of control), % at 10 µM; AID 1441; O15492+P09471;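 active = below 25% or above 175%, edge rows of some plates excepted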;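 note: Galphao activated by GDP with aluminum fluoride before binding; 100% = wells without compound and 0% = beads without RGS; some results beyond the cut were filed as inactive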
Target sequence (O15492 whole entry, looked up): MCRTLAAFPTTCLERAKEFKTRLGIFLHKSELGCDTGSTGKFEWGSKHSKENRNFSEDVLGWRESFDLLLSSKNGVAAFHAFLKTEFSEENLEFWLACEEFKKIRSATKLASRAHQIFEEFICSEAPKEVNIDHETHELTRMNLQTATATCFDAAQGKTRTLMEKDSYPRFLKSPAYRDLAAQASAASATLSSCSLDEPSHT
Target sequence (P09471 whole entry, looked up): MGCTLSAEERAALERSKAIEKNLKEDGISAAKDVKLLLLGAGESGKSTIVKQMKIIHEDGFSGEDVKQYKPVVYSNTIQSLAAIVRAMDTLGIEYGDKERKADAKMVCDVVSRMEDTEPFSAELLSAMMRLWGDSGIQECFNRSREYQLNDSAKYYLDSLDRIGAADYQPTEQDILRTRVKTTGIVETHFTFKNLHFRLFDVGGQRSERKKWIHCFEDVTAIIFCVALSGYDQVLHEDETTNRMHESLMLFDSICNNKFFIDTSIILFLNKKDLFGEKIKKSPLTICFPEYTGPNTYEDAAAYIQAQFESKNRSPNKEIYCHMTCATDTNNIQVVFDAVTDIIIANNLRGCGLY
Insulin prom inh cell count: also measured in Insulin prom inh; calls as there; normalized cell count, %; measured here: cell count, toxicity; reference of the scale not given here;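 cells exposed to compound for 48 h; stained nuclei by imaging scaled within each plate; lower means fewer cells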
HSV augment primary fold: second read-out of HSV augment, no call of its own (marks repeat the call); fold increase; compound at 10 µM; measured here: primary screen fold increase 10 uM; tested in PC3 cells;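 GFP signal in the first replicate; 1 = infected wells without compound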
* marks the source's active call; other numbers are inactive results; i = inactive; nt = no result given; [ ] = dose if it differs, or a comment. Hits appear at their usual frequency. Share with any hit: about 1.1%.

SMILES	PKD1 kinase inh	GALR2 ag	Insulin prom inh	Insulin prom inh cell count	HSV augment	HSV augment primary fold	RGS16-Gao HTS
CN1CCN(C(=O)c2ccc(COc3ccc(C(C)(C)C)cc3)o2)CC1	3	-0.7	20	90	i	0.82	108
CNC(=O)COC(=O)/C=C/c1c(C)nn(-c2ccccc2)c1C	-5	-1.0	44	108	i	0.91	103
Cc1ccn(C(=O)c2cc3cc(Cl)ccc3oc2=O)n1	1	-3.0	-23	114	i	1	98
COc1ccc(C2C(C(C)=O)=C(O)C(=O)N2C)c(OC)c1 (stereo unspecified)	-2	-1.1	-46	140	i	0.86	111
CCOC(=O)c1cc2sc(C)cc2n1CC(=O)Nc1ccc2c(c1)OCCO2	3	-1.9	nt	nt	i	0.81	99
Cc1cc(C(=O)CSc2nc3ccccc3n2C)c(C)n1C	4	-1.0	12	125	i	0.97	101
O=C(CSc1nc2c(cnn2-c2ccc(F)cc2)c(=O)[nH]1)Nc1nccs1	-4	-0.8	40	116	i	0.91	106
C/C(Cl)=C\COc1cc(C)nc2c(Br)cccc12	-6	nt	nt	nt	i	1	102
O=C(O)c1ccccc1C(=O)c1ccc(N2CCCC2)c([N+](=O)[O-])c1	8	nt	nt	nt	i	0.87	98
CC(C)COc1ncnc2c1sc1nc3c(cc12)COC(C)(C)C3	nt	nt	nt	nt	i	0.88	206*[activator]
O=C(/C=C/c1ccc(F)cc1)Nc1cc(S(=O)(=O)N2CCOCC2)ccc1N1CCCC1	-2	-0.7	nt	nt	i	1.2	94
O=C(Nc1ccccc1-c1ccccc1)c1cccc(C(F)(F)F)c1	-6	0.0	nt	nt	i	1	143
CCS(=O)(=O)n1nc(-c2ccccc2)nc1SC	-5	-0.1	36	128	i	0.88	101
C=C(C)CNC(=S)N/N=C(\C)c1ccc(-n2ccnc2)cc1	-4	-2.1	8	116	i	0.86	103
Cc1ccc2cc(/C=N/Nc3ccc(C(=O)O)cc3)c(Cl)nc2c1	nt	nt	nt	nt	i	0.9	92
Cc1ccc(S(=O)(=O)N(CC(=O)NCCSC2CCCCC2)c2ccccc2F)cc1	-3	0.1	-3	125	i	1.5	94
O=C(CSc1n[nH]c(=O)[nH]c1=O)c1cccc([N+](=O)[O-])c1	3	nt	-114	69	i	0.93	108
Cc1ccc(S(=O)(=O)N2CCN(CC(=O)Nc3ccc([N+](=O)[O-])cc3)CC2)cc1C	1	-0.9	17	144	i	0.84	100
Cn1c(C2CC(=O)N(Cc3ccccc3)C2)nc2ccccc21 (stereo unspecified)	12	-2.9	nt	nt	i	0.92	41
CC(=O)c1cn(CC(=O)Nc2c(C)cccc2C)c2ccccc12	0	-2.2	37	128	i	0.98	98
CCCCCSc1nc(N2CCOCC2)c2c(c1C#N)CC(C)(C)OC2	-1	2.2	nt	nt	i	1.1	98
CC(C)(C)NC(=O)COc1ccccc1C#N	1	nt	nt	nt	i	1	98
COc1cc(OC)cc(C(=O)N2CCN(Cc3ccccc3C(F)(F)F)CC2)c1	5	-3.2	-57	36	i	0.9	126
CN(C)/C=N/c1cc(=O)[nH]c(=O)n1CC1CC1	12	-2.0	18	141	i	0.93	106
CCCC(C)c1nnc(NC(=O)C(=O)OCC)s1 (stereo unspecified)	2	nt	10	137	i	0.96	92

(listing goes on)
SMILES	PKD1 kinase inh	GALR2 ag	Insulin prom inh	Insulin prom inh cell count	HSV augment	HSV augment primary fold	RGS16-Gao HTS
Cc1ccc(-n2nnc3c(=O)n(CC(=O)N4CCC(C)CC4)cnc32)cc1	2	-1.9	nt	nt	i	1.1	92
COc1ccc(CCN(C(=O)c2cccc(F)c2)C2CC(=O)N(c3ccc(OC)cc3)C2=O)cc1 (stereo unspecified)	13	-3.2	-50	120	i	0.97	102
CCN(CC)S(=O)(=O)c1ccc(NCc2ccccc2)nc1	-6	-1.5	nt	nt	i	1.1	107
Cn1c(-c2ccccc2[N+](=O)[O-])[n+](C)c2ccccc21	nt	nt	nt	nt	i	1	102
Cc1cccc(N2CCN(C(=O)CCN3C(=S)NC(C)(C)CC3C)CC2)c1C (stereo unspecified)	1	nt	nt	nt	i	0.96	101
CC1Cc2nc(SCC(N)=O)n(Cc3ccccc3)c(=O)c2S1 (stereo unspecified)	nt	nt	nt	nt	i	0.92	102
Cn1c(SCc2ccc(C(=O)Nc3nccs3)cc2)nnc1-c1ccccc1	-5	-0.6	-34	103	i	0.97	98
Cc1ccccc1-c1nc(CN(Cc2c(C)nn(C)c2C)C2CC2)c(C)o1	-2	nt	nt	nt	i	0.95	103
CCCCc1n[nH]c(=S)n1Cc1ccccc1	-2	nt	nt	nt	i	0.99	98
CC(=O)OCCn1c(Br)nc2c1c(=O)[nH]c(=O)n2C	10	-2.0	nt	nt	i	0.98	95
CCOC(=O)c1cnc(-n2nc(C)cc2C)nc1Nc1ccc(OC)cc1	-2	-1.6	nt	nt	i	0.78	43
COc1ccc(Br)cc1/C=N/NC(=O)C(c1ccncc1)N1CCOCC1 (stereo unspecified)	-17	-1.0	10	82	i	1.1	191
O=S1(=O)CCN(Cc2ccccc2C(F)(F)F)CC1	3	nt	45	66	i	0.96	99
CC(=O)NC(c1cccc([N+](=O)[O-])c1)c1c(OC(C)=O)ccc2ccccc12 (stereo unspecified)	-4	-1.7	19	91	i	0.98	104
COc1ccc(O)c(/C=N/NC(=O)CSc2nnc(C)n2-c2ccccc2)c1	16	-3.4	-17	134	i	0.96	97
Clc1ccccc1OCc1nc(-c2ccc(Br)o2)no1	0	-2.6	nt	nt	i	0.94	101
O=C1CCCN1CCCN=c1c([N+](=O)[O-])nn(-c2ccc(Cl)cc2)n1O	-4	nt	nt	nt	i	0.97	102
C#CCOC(=O)C(NC(=O)c1ccccc1)=C(C)C	-6	-2.0	-26	105	i	0.92	-38*
COc1ccc(-n2sc3c(c2=S)-c2cc(OC)ccc2NC3(C)C)cc1	-7	-3.1	33	127	i	0.78	88
COCC(=O)N/N=C/c1c(C)[nH]n(-c2ccccc2)c1=O	7	nt	nt	nt	i	1.2	100
Cc1c(C(=O)N2CCN(c3cccc(Cl)c3)CC2)cccc1[N+](=O)[O-]	2	nt	-96	50	i	0.85	47
S=c1[nH]ccn1-c1c(Cl)cccc1Cl	nt	nt	nt	nt	i	0.89	100
COc1ccc2cc(C(=O)N3CCCCCC3)sc(=O)c2c1OC	-7	-1.4	-50	145	i	0.91	94
Cc1cc(C)n(-c2nc3ccccc3nc2N2CCN(C(=O)c3ccc(Cl)cc3)CC2)n1	1	0.7	5	129	i	0.97	96
Fc1cccc(/C=N/Nc2ncnc3nc[nH]c23)c1	-3	-2.1	-17	53	nt	nt	41

Next records:
SMILES	PKD1 kinase inh	GALR2 ag	Insulin prom inh	Insulin prom inh cell count	HSV augment	HSV augment primary fold	RGS16-Gao HTS
Cc1ccc(S(=O)(=O)Nc2ccc3c(c2)CCC3)cc1	-20	-0.7	nt	nt	i	1.1	97
Cc1cccc(C)c1NC(=O)COC(=O)CCc1ccc(S(=O)(=O)N2CCCCC2)cc1	1	-1.1	nt	nt	i	1.1	222
COc1cccc(-n2nc3c(-n4ncc(C#N)c4N)nnc(C)c3c2C)c1	-14	-2.7	27	70	i	0.89	109
COC(=O)COc1ccc(S(=O)(=O)NCc2cccnc2)cc1C	-1	-0.5	-62	95	i	0.97	102
S=c1[nH]ncn1NCc1ccc(Cl)cc1Cl	0	nt	nt	nt	i	1.3	98
COC(=O)c1cc([N+](=O)[O-])c(-n2cncn2)c([N+](=O)[O-])c1	6	nt	nt	nt	i	0.97	99
O=C(CNc1cccc2ccccc12)N/N=C/C=C/c1ccco1	-6	nt	nt	nt	i	0.98	101
O=C(Nc1ccc(Br)cn1)c1ccc([N+](=O)[O-])cc1Cl	-1	nt	nt	nt	i	1.1	99
O=C(NC1(C(F)(F)F)C(=O)Nc2c1c(=O)[nH]c(=O)n2Cc1ccco1)C1CC1 (stereo unspecified)	-11	-0.2	-19	100	i	1.1	103
COCCCN1C(=O)c2ccc(C(=O)OCC(=O)NCCc3ccccc3)cc2C1=O	-9	nt	nt	nt	i	0.98	112
Cc1cccc(NC(=O)c2ccc([N+](=O)[O-])cc2Cl)n1	-14	-2.0	-33	107	i	0.95	100
C/C(N)=C(/C#N)C(=O)CSc1nnc(SCc2ccc(Cl)cc2)s1	6	-3.1	-14	86	i	0.98	97
COC(=O)C(CCSC)NC(=O)CNC(=O)C1CCCCC1 (stereo unspecified)	-4	-0.4	nt	nt	i	0.94	99
CN(C)S(=O)(=O)c1cccc(NC(=S)NCc2ccc3c(c2)OCO3)c1	-6	nt	-36	132	i	0.85	103
COc1ccc(NS(=O)(=O)c2ccc(Oc3cccc(C(=O)O)c3)cc2)cc1	-9	nt	nt	nt	i	0.97	98
C/C(CC(=O)Nc1cc(Cl)ccc1Cl)=N\NC(=O)c1ccco1	6	-0.5	nt	nt	i	0.87	99
CCn1nc(C)c(/C=N/NC(=O)Cn2nc(C)cc2C)c1C	-4	-1.0	-11	53	i	1	113
CCN(CC)S(=O)(=O)c1ccc(N2CCOCC2)c(NC(=O)C2CCCO2)c1 (stereo unspecified)	nt	nt	nt	nt	i	0.95	100

Structures shown so far that contain an aryl thioether with sulfur outside any ring:
SMILES	PKD1 kinase inh	GALR2 ag	Insulin prom inh	Insulin prom inh cell count	HSV augment	HSV augment primary fold	RGS16-Gao HTS
Cc1cc(C(=O)CSc2nc3ccccc3n2C)c(C)n1C	4	-1.0	12	125	i	0.97	101
O=C(CSc1nc2c(cnn2-c2ccc(F)cc2)c(=O)[nH]1)Nc1nccs1	-4	-0.8	40	116	i	0.91	106
CCS(=O)(=O)n1nc(-c2ccccc2)nc1SC	-5	-0.1	36	128	i	0.88	101
O=C(CSc1n[nH]c(=O)[nH]c1=O)c1cccc([N+](=O)[O-])c1	3	nt	-114	69	i	0.93	108
CCCCCSc1nc(N2CCOCC2)c2c(c1C#N)CC(C)(C)OC2	-1	2.2	nt	nt	i	1.1	98
CC1Cc2nc(SCC(N)=O)n(Cc3ccccc3)c(=O)c2S1 (stereo unspecified)	nt	nt	nt	nt	i	0.92	102
Cn1c(SCc2ccc(C(=O)Nc3nccs3)cc2)nnc1-c1ccccc1	-5	-0.6	-34	103	i	0.97	98
COc1ccc(O)c(/C=N/NC(=O)CSc2nnc(C)n2-c2ccccc2)c1	16	-3.4	-17	134	i	0.96	97
C/C(N)=C(/C#N)C(=O)CSc1nnc(SCc2ccc(Cl)cc2)s1	6	-3.1	-14	86	i	0.98	97
